RecA splice inh: blocks M. tuberculosis RecA intein splicing; P9WHJ3; cell-free RecA intein splicing, fluorescence; inhibition, %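 (about 9 µM by stock and volumes)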; 290,000 tested, 0.75% active; in the data active means inhibition above about 30%; inconclusive means no clear call, values can overlap the other calls;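 further: 0% = vehicle wells and 100% = reference inhibitor control wells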
Target sequence (P9WHJ3 whole entry, looked up, canonical isoform): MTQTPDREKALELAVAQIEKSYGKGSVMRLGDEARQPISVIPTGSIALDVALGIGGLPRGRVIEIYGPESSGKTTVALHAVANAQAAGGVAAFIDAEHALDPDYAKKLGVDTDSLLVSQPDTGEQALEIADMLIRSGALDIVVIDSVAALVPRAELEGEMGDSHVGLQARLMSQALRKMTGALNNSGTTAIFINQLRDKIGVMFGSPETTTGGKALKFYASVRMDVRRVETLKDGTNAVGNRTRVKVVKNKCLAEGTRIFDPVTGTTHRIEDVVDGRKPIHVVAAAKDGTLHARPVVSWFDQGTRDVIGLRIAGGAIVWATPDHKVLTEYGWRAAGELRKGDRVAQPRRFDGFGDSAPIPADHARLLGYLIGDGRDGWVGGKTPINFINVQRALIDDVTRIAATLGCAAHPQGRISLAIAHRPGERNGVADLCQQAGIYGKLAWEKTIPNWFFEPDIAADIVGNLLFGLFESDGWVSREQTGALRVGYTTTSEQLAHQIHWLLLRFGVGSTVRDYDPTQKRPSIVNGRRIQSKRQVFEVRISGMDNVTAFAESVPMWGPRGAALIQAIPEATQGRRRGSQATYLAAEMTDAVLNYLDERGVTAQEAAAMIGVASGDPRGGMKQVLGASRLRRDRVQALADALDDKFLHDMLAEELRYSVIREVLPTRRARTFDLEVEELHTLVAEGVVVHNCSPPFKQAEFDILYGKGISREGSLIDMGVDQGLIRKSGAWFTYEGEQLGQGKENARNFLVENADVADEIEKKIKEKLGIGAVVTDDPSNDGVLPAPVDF
Mtb bLac sens: beta-lactam sensitization of Mtb H37Rv | M. tuberculosis H37Rv growth with meropenem, percent inhibition; hits of this screen are not shown here | inhibition, % at 25 µM | 330,000 tested, 0.27% active | AID 434955;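 active means about 74% or more and at least 40 points above the plate without the antibiotic, then above 30% in a dose series; inconclusive means first-round hits that could not be retested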;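 further: growth measured after seven days incubation then overnight dye step; 0% = bacteria only wells and 100% = bacteria with antibiotic; twin plates without the antibiotic show which effects depend on it; some results filed as inactive read as strong as hits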
YopH inh: YopH (Yersinia) phosphatase inhibition; fluorescence Ex485/Em525; inhibition, %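 (about 10 µM by stock and volumes)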; 140,000 tested, 0.16% active;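 active means inhibition of 50% or more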;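 further: controls were vehicle for no effect and minimum signal wells for full effect; inactives centre near -20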
Mtb growth: M. tuberculosis H37Rv growth inhibitors, H37Rv strain (AID 1626) | M. tuberculosis H37Rv growth inhibition; higher % means a stronger effect | one-dose inhibition, % at 10 µM; IC50 in µM for titrated hits | 220,000 tested, 0.95% active;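 active means confirmed in a dose series; inconclusive means inhibition above 80% but not taken into the dose series; inactive means below 80% or under 30% at every dose of the series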;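 further: bacteria incubated seven days before Alamar blue readout; 0% = bacteria only wells and 100% = bacteria with antibiotic wells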
Arbovirus anti: blocks arbovirus infection; arbovirus infection cell-based antiviral screen; inhibition, % at 10 µM; 200,000 tested, 0.37% active; AID 1251;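 active means inhibition from about 30%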;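 further: bluetongue infection of BSR cells; cell survival read as ATP light after 72 h; 0% = infected wells without compound and 100% = uninfected wells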
Arbovirus anti repeat: also measured in Arbovirus anti; calls as there; inhibition, %; measured here: 10K subset replicate screen; many hits read low in the repeat;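 first of two repeat runs on a subset; 0% = infected and 100% = uninfected wells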
* hit, by the source's call; i = inactive; ? = inconclusive; · = no result given. A portion of the library, so the mix of outcomes need not match the whole.

SMILES	RecA splice inh	Mtb bLac sens	YopH inh	Mtb growth	Arbovirus anti	others
COc1ccc(N2CCN(C(=O)c3cccn4c(=O)c5ccccc5nc34)CC2)cc1	-1.9	4	·	-2%	-1
O=[N+]([O-])c1cc([N+](=O)[O-])c(Oc2c(Cl)cccc2Cl)cc1NN1CCCCC1	-0.4	-2	·	·	·
Cc1ccc(S(=O)(=O)N(CC(=O)N=Nc2c(O)[nH]c3ccccc23)c2ccc(C)c(C)c2)cc1	·	-5	-43	79%	-6
O=C(Nc1cccnc1)c1sc(Nc2ccccc2F)nc1-c1ccccc1	-2.3	8	·	9%	-8
CCN(CC)S(=O)(=O)c1cccc(C(=O)N[C@H](C(=O)OCC(N)=O)C(C)C)c1	0.6	-12	-20	-9%	2
CSc1nnnn1-c1c(C)cccc1C	-3.5	-3	·	0%	·
COCCn1nnnc1C(c1cc2ccc(OC)cc2[nH]c1=O)N1CCN(C2CCCCC2)CC1 (centres undefined)	-2.7	-3	-34	-8%	-3
C=CCC(=O)OCCCCCCOc1ccc(C(=O)O)cc1	3.0	-3	-5	-14%	6
Cn1cccc1CC(=O)N/N=C/c1cccc([N+](=O)[O-])c1	4.1	-7	·	-1%	16
COc1cc(/C=N/NC(=O)c2ccc3c(c2)OCO3)ccc1O	-1.7	4	·	·	·
COc1ccc(NC(=O)CSc2nc(O)cc(=O)n2C)cc1	2.0	0	-13	-8%	2
COc1ccc([N+](=O)[O-])cc1NCc1ccco1	0.0	2	·	10%	·
CCC1CCCCN1CCCNC(=O)c1ccc2c(c1)NC(=O)CS2 (centres undefined)	-0.4	-1	·	·	·
COC(=O)c1ccc(CSc2ccc3nnc(-c4ccc(OC)cc4)n3n2)o1	-4.7	-1	·	9%	1
Brc1ccc2nc(N3CCCC3)sc2c1	-0.8	-14	·	16%	7
CCN(CC)CCCNC(=O)CSc1nc2c(c(C(F)(F)F)n1)CCc1ccccc1-2	-1.2	3	·	4%	-26
O=C(NNc1c(Cl)cc(Cl)cc1Cl)c1cccc([N+](=O)[O-])c1	-0.8	5	8	5%	29
O=C(NNC(=S)NC(=O)c1ccccc1[N+](=O)[O-])c1ccc(Cl)cc1Cl	3.1	-5	·	-10%	-11
Cc1ccc(N=CC2=C(O)CC(C)(C)CC2=O)nc1	-1.5	-7	3	-1%	3
CC1(C)CC2CC(C)(CN2C(=O)Cc2ccccc2)C1 (centres undefined)	2.8	0	-4	-10%	-10
Fc1ccccc1Nc1nc(-c2ccncc2)nc2ccccc12	-0.9	4	-18	-4%	2
Cc1cc(NC(=O)C(C)SCC(=O)Nc2ccccc2C(C)(C)C)no1 (centres undefined)	1.8	4	·	·	·
CCOC(=O)CC(=O)c1cc(OC)c(OC)c(OC)c1	0.8	-1	-9	-11%	-5
CCC1(CC)Cc2ccccc2C(C2=C(O)CC(C)(C)CC2=O)=N1	4.3	-1	-13	2%	1
CC(C)CCN(C(=S)Nc1cccc(F)c1)C1CCN(C(C)C)CC1	6.2	-13	·	7%	11
CCc1ccc(-c2cc(C)no2)cc1S(=O)(=O)Nc1cc(C)ccn1	-1.6	0	·	·	·
CC(C)(CO)Nc1nc(N2CCCC2)nc(N2CCCC2)n1	18	4	-19	-3%	-1
CCOC(=O)c1c(CSC(=N)N)n(-c2ccc(C)cc2)c2cc(Br)c(OC(C)=O)cc12	70*	39	-74	10%	-43
O=C(NCc1cccnc1)C(=O)Nc1cc2c3c(c1)CC(=O)N3CCC2	13	-2	·	·	·
Cc1cc(C(F)(F)F)nn1Cc1n[nH]c(=S)n1-c1cccc(Cl)c1	-0.1	-15	-24	-3%	1
CC(C)c1nnc(NC(=O)CCC(=O)Nc2ccc3cn[nH]c3c2)s1	1.3	6	·	-3%	·
COC(=O)CNc1nc(Cl)nc(Nc2ccc(Cl)cc2)n1	·	6	·	-14%	4
CNC(=O)COC(=O)/C=C/c1cccc(F)c1	0.5	48	·	-14%	7
Cc1ccc(-c2cc(C(F)F)n3ncc(C(=O)N4CCC5(CC4)OCCO5)c3n2)cc1	·	14	-22	3%	-3
CCOc1ccc(/C=C2\SC(=S)N(CCC(=O)Nc3ccc(C(=O)O)cc3)C2=O)cc1	9.1	3	·	·	·
O=C(c1ccc(S(=O)(=O)N2CCCCC2)cc1)N1CCN(c2ccccc2F)CC1	-0.7	-2	-23	-1%	7
O=C(CN1CCOCC1)N/N=C/c1ccc(-c2ccc(Br)cc2)o1	-0.7	98	·	?	·
COc1cccc(CNC2CCCCCCC2)c1OC	-2.6	-8	·	·	·
CCC(C)NC(=O)CN1C(=O)C(CC)Sc2ccccc21 (centres undefined)	0.2	1	·	0%	3
C=CCNC(=O)CN(c1ccc(F)c(Cl)c1)S(C)(=O)=O	0.5	-9	-27	-6%	0
CSc1ccc(C(=O)C2CCCN(C(=O)c3cc(C)n(C)n3)C2)cc1 (centres undefined)	0.5	4	·	·	·
CC(=O)C1=C(c2ccccc2)OC(N)=C(C#N)C1c1ccccc1F (centres undefined)	-1.5	0	-28	1%	6
O=C(Cn1ncc2c(=O)oc3ccccc3c21)NCCN1CCN(c2ccccc2F)CC1	-7.2	-8	-16	-3%	4	Arbovirus anti repeat=-1
CN(Cc1ccccc1)S(=O)(=O)c1nnc(NC(=O)c2ccc(F)cc2)s1	-0.3	17	·	·	·
COC(=O)C1C(=O)c2c([nH]c(C(=O)OC3CCCCCC3)c2C)CC1C (centres undefined)	-0.2	0	-22	2%	-11	Arbovirus anti repeat=-10
O=C(OCC(=O)N1CCOCC1)c1ccc2c(c1)OCCO2	0.6	-4	-22	1%	-4
CCOc1ccc(-n2c(SCC(=O)Nc3ccc(OC)cc3)nc3c(c2=O)SCC3)cc1	-3.4	4	-33	2%	8
COC(=O)c1cccc(C23CC4(C2)[C@H](CN(Cc2cccnc2)[C@@H]4c2ccccc2)C3c2ccccc2)c1 (some centres undefined)	12	-5	·	-3%	·
O=C(Nc1c[nH]c(=O)[nH]c1=O)c1cccc([N+](=O)[O-])c1	-1.2	1	·	·	·
O=C(c1ccc(Cl)c(S(=O)(=O)N2CCCCC2)c1)N1CCN(Cc2ccccc2)CC1	2.0	-2	·	·	·

Filtered by structure, those above containing two or more sulfur atoms
SMILES	RecA splice inh	Mtb bLac sens	YopH inh	Mtb growth	Arbovirus anti	others
CCOc1ccc(/C=C2\SC(=S)N(CCC(=O)Nc3ccc(C(=O)O)cc3)C2=O)cc1	9.1	3	·	·	·
CN(Cc1ccccc1)S(=O)(=O)c1nnc(NC(=O)c2ccc(F)cc2)s1	-0.3	17	·	·	·
CCOc1ccc(-n2c(SCC(=O)Nc3ccc(OC)cc3)nc3c(c2=O)SCC3)cc1	-3.4	4	-33	2%	8

New compounds follow
SMILES	RecA splice inh	Mtb bLac sens	YopH inh	Mtb growth	Arbovirus anti	others
NC(=O)CN(c1ccc([N+](=O)[O-])cc1)S(=O)(=O)c1ccccc1	2.9	-1	·	0%	5
CC(C)N(Cc1nccn1C)C(=O)c1ccc(OC2CCN(C(=O)C3CC3)CC2)cc1	-1.2	-1	·	-14%	-1
Cc1ccn2c(-c3csc(NCc4ccco4)n3)c(C)nc2c1	6.0	0	-29	-5%	16	Arbovirus anti repeat=4
CCCCn1c(O)c(C(C)=NCCCN(CC)CC)c(=O)[nH]c1=O	-0.3	2	-2	-5%	1
N#C/C(=C\c1ccccc1)C(=O)Nc1cccnc1	-2.4	-4	·	-7%	·
CC(OC(=O)Cc1ccccc1[N+](=O)[O-])C(=O)NC(=O)NC1CCCCC1 (centres undefined)	1.6	-11	·	·	·
CC(OC(=O)CNC(=O)c1ccc2ccccc2c1)C(=O)N(C)C1CCCCC1 (centres undefined)	1.8	-15	·	·	·
CCCCNC(=O)c1onc(CSc2cccc(OCC)c2)c1C(=O)O	2.1	-8	-36	-22%	1
Cc1ccc(S(=O)(=O)NCc2nc3nc(C)cc(C)n3n2)c(C)c1	-1.8	-5	·	·	·
c1ccc(-c2cn3nc4c(nc3n2)CCCC4)cc1	i	1	7	-1%	-8
C/C(=N\OCC(=O)OCC(=O)NCc1ccccc1)c1ccc2c(c1)OCO2	0.0	1	·	·	·
O=C(COC(=O)/C=C/c1ccc(Cl)cc1)NCCC1=CCCCC1	-1.6	2	-21	-5%	6
CN(CC(=O)Nc1ccccc1Cl)CC(=O)Nc1c(F)cccc1F	2.5	-3	·	4%	-3
COC(=O)c1c(-c2c(Cl)cccc2Cl)noc1NC(=O)NN1CCOCC1	·	0	·	-8%	·
Cn1cnnc1SCC(=O)Nc1ccccc1C(=O)NC1CC1	0.5	2	-8	-2%	1
COCCSc1nnc(NC(=O)C2CC(=O)N(C3CCCC3)C2)s1 (centres undefined)	-0.1	-7	·	·	·
O=c1oc(Cc2ccccc2)nc2ccccc12	-1.9	11	·	·	·
Cc1ccc2c(c1)NC(=O)C(CC(=O)NCCCN1CCN(c3cc(C)ccc3C)CC1)O2 (centres undefined)	0.2	0	-16	·	-3
CCc1nnc(NC(=O)CSc2nnc(-c3ccccc3O)n2CC)s1	2.7	2	-41	4%	19
CCOC(=O)c1cc2nc(Nc3ccc(OC)cc3)sc2s1	1.1	0	3	7%	-8

Gathered by group, the compounds so far containing a COOH group
SMILES	RecA splice inh	Mtb bLac sens	YopH inh	Mtb growth	Arbovirus anti	others
C=CCC(=O)OCCCCCCOc1ccc(C(=O)O)cc1	3.0	-3	-5	-14%	6
CCOc1ccc(/C=C2\SC(=S)N(CCC(=O)Nc3ccc(C(=O)O)cc3)C2=O)cc1	9.1	3	·	·	·
CCCCNC(=O)c1onc(CSc2cccc(OCC)c2)c1C(=O)O	2.1	-8	-36	-22%	1

Going on with the list.
SMILES	RecA splice inh	Mtb bLac sens	YopH inh	Mtb growth	Arbovirus anti	others
COc1ccc(-c2cc3c(=O)n(CC(=O)NCc4ccc(F)cc4)ncn3n2)cc1	-4.3	5	·	·	·
CC1CCN(C(=O)CSc2nnc(CNC(=O)COc3ccc(Cl)cc3)o2)CC1	1.2	-8	-3	-4%	-4
CCN1CCN(Cc2nc3c(c(=O)n(C)c(=O)n3C)n2Cc2ccccc2Cl)CC1	·	·	-36	2%	-6	Arbovirus anti repeat=0
OCCCc1nc2n(n1)C(c1ccccc1Cl)C=C(c1cccs1)N2 (centres undefined)	·	-2	8	-1%	16
O=C(NNCc1ccc(O)cc1)c1ccccc1Cl	0.7	1	·	·	·
O=C(c1cc(-c2cccs2)nc2ccccc12)N1CCN(S(=O)(=O)c2cccc(F)c2)CC1	1.0	-5	5	-10%	-1
O=C(Cn1ncc2c([nH]c3ccccc32)c1=O)NCCCN1CCN(c2ccccc2)CC1	-1.4	2	·	·	·
CNC(=O)Nc1cc(C(F)(F)F)cc(C(F)(F)F)c1	-1.7	-7	·	-5%	·
O=C(O)c1cc(O)c2c(c1)C(=O)c1cc(O)cc(O)c1C2=O	5.4	-2	·	5%	-5
COc1ccc(NC(=O)CN2CCC(NC(=O)C3CCCCC3)CC2)c([N+](=O)[O-])c1	-7.9	-1	·	-1%	0
CN1/C(=C/C(=O)C2CC2)C(C)(C)c2ccccc21	3.1	-2	·	7%	0
Cc1ccc(O)c(NC(=O)c2noc3c2CCCCC3)c1	-1.4	5	·	4%	13
COc1ccc(OC)c(C(C(=O)NC2CCCCC2)N(C(=O)c2snc(C(N)=O)c2N)c2ccccc2OC)c1 (centres undefined)	2.2	3	·	·	·
Cn1c(N)c(C(=O)Nc2ccccc2F)sc1=S	-0.2	-10	·	-4%	·
COc1ccc(S(=O)(=O)N2CCCC2C(=O)Nc2nnc(-c3cccnc3)s2)cc1 (centres undefined)	-1.8	-5	-30	-2%	9
C=CCn1c(SCC(=O)C23CC4CC(CC(C4)C2)C3)nc(O)cc1=O	1.4	-3	·	-8%	·
C=CCN(c1cccc(C(F)(F)F)c1)S(=O)(=O)c1cccc(C(=O)OCC(=O)NCCC)c1	2.1	45	-14	7%	14
Cc1ccc2c(c1)C(SCC(=O)NCCc1ccccc1)CC1(CCCC1)O2 (centres undefined)	1.6	3	-22	·	5
NC(=S)NNC(=S)Nc1ccccc1	-6.1	-2	·	-14%	10
CNS(=O)(=O)c1ccc(NC(=O)c2nc3nc(C)cc(C(F)F)n3n2)cc1	·	·	-21	-5%	2
CCC(CC)C(=O)NCCc1ccc(OC)cc1	2.6	2	-6	0%	0
CCCCN1C(=O)/C(=C/c2ccc(N3CCCCCC3)cc2)C(=O)NC1=S	-0.2	15	33	1%	10
CN=C1c2ccccc2CN1c1cccc(C(=O)OC)c1	4.6	0	12	-3%	-5
COc1ccc(-c2nc(CSCC(=O)N3CCN(C(=O)c4ccco4)CC3)c(C)o2)cc1OC	-0.8	-5	-35	-13%	-1	Arbovirus anti repeat=7
O=C(CSc1nc2ccccc2[nH]1)NC1CCCc2ccccc21 (centres undefined)	1.5	-3	-30	9%	5
Cc1ccc2nc(NC(=O)[C@H](C)N3C(=O)C4CC=CCC4C3=O)sc2c1 (some centres undefined)	-1.7	-8	·	-1%	24

Compound activity as filed in PubChem.
